Bioassay records (PubChem)
RN4220 kill – growth inhibition of S. aureus RN4220, primary screen, OD600; 16 h; inhibition, % (no concentration beside the values); 330,000 tested, 0.33% active; AID 1259311, 2017;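 active means z-score of -3 or lower and OD600 up to 0.18 on both plates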;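 further: plate controls were untreated cells for no effect and reference antibiotic for full effect; stock transfer was 100 nL into about 80 µL; one replicate is shown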
PrP 5UTR inh – inhibition of PrP 5' UTR reporter expression. cell-based PrP 5' UTR mRNA reporter, plate reader. inhibition, % (no concentration beside the values). 340,000 tested, 0.35% active. AID 488862, 2010;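 active means every replicate at 50% or more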;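 further: 0 = median of the neutral control wells; tested in H4 reporter cells; numbers are from one replicate; inactives centre near -14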
ugtP null kill – growth inhibition of ugtP-null S. aureus, primary screen, RN4220 ugtP deletion, OD600 | 16 h; some inactives read as strong as hits | growth inhibition, % (concentration not given with the values) | 330,000 tested, 0.54% active;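 active means z-score under -3 and OD600 up to 0.15 on both plates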;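 further: plate controls were untreated wells for no effect and antibiotic for full effect; wells of about 80 µL received 100 nL stock; the first replicate is given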
Mtb hypoxia rep – PubChem AID 1159583; M. tuberculosis hypoxia-regulated fluorescent reporter, fluorescence; fluorescence inhibition, % (no concentration beside the values); 300,000 tested, 0.1% active;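 active means 35 to 45% if threefold the growth effect, above 45% if 1.5-fold the growth effect; inactive means the rest, general growth blockers included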;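 further: wells of about 50 µL received 100 nL stock; 0% = vehicle wells and 100% = reference inhibitor wells; whole bacteria with a GFP reporter of the hypoxia response; strong numbers were not always called active; many hits fall short of the cut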
BJeLR lethal – MLPCN primary cell-based screen for lethality selective to Ras in HRASV12 cells | 300,000 tested, 0.17% active | inhibition, % (no concentration beside the values) | BJeLR (HRASV12) viability, CellTiter-Glo ATP luminescence, 48 h; reference of the scale not given here;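 active means replicate mean above 50%; inconclusive means above 50% but judged a plate artefact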;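 further: 50 nL library stock added to about 25 µL; numbers are from one replicate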
Bead autofluor – compound fluorescence in toxin protease inhibitor counterscreen | compound autofluorescence counterscreen, microsphere flow cytometry; stronger effect = higher value | fluorescence intensity (concentration not given with the values) | 360,000 tested, 3.1% active | AID 624483;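 active means at least 3 SD above the mean of all compounds, about 16000 in these data; inconclusive means too few beads counted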;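 further: 100 nL of 1 mM stock went into each well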
Mtb hypoxia rep growth – second read-out of Mtb hypoxia rep, no call of its own (marks repeat the call); growth inhibition, %; measured here: M. tuberculosis growth (absorbance);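 0% = vehicle and 100% = reference antibiotic; read after six days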
Starred values were filed as active, the others as inactive; ? = inconclusive; · = no result given; & = joins results of further samples. Rows are unselected (roughly 3.9% active in at least one column).

SMILES	RN4220 kill	Mtb hypoxia rep growth	BJeLR lethal	Bead autofluor	PrP 5UTR inh	ugtP null kill	Mtb hypoxia rep
Cc1ccc(-n2nc(C)c3c(C)c(CCC(=O)NCC4CCCO4)c(=O)n(C)c32)cc1 (centres undefined)	4.5	-1	3	5321	-9	0	-4
Cc1ccc(NC(=O)c2ccco2)c(NC(=O)c2ccccc2)c1	1.8	-2	-7	6946	-10	-7	2
Cc1cccc(NC(=O)CSc2nc3ccccc3o2)c1	4.5	8	2	9609	-31	2	-5
CCN1C(=O)c2ccccc2S(=O)(=O)c2ccc(C(=O)NCC(OC)OC)cc21	2.5	3	-4	3675	-12	-1	7
CC(=O)OC1N=C(c2ccccc2)c2cc(Br)ccc2NC1=O (centres undefined)	2.5	8	1	3253	-9	6	10
O=C(CNC(=O)c1cccs1)NN=Cc1ccco1	2.2	4	·	·	·	0	8
Nc1n[nH]c(N)c1N=Nc1ccccc1	3.8	10	14	4455	-15	11	7
COc1ccc(OCC(O)CN2CCc3ccccc3C2)cc1 (centres undefined)	2.6	3	-1	6135	-6	0	16
COc1ccccc1NC(=O)c1cc(Sc2nncn2C)nc2ccccc12	11	6	-2	3300	-2	2	1
O=C(CSc1nnc(-c2ccccc2O)o1)N1CCc2ccccc2C1	6.9	7	1	20351*	5	0	1
CCOc1ccccc1N=Nc1c(C)[nH]n(C(N)=S)c1=O	-0.5	6	-12	3759	·	-7	6
Cc1[nH]c2ccccc2c1C(=O)C(=O)NCC1CCCO1 (centres undefined)	9.7	16	-12	3146	-6	5	11
O=C(CCc1ccccc1)N=C1SC2CS(=O)(=O)CC2N1c1ccccc1 (centres undefined)	1.3	-5	-6	·	-3	2	1
CCOC(=O)c1ccc(-c2ccc(/C=N/NC(=O)Cc3nnc(N)s3)o2)cc1	·	·	-4	4203	-23	·	·
COc1ccc(C2C(C#N)=C(N)Oc3c2oc(CO)cc3=O)cc1 (centres undefined)	0.4	10	-9	4521	0	9	1

Additional compounds follow:
SMILES	RN4220 kill	Mtb hypoxia rep growth	BJeLR lethal	Bead autofluor	PrP 5UTR inh	ugtP null kill	Mtb hypoxia rep
Cc1ccc(NC(=O)COC(=O)c2nn(C)c(=O)c3ccccc23)cc1F	0.3	5	·	4011	-11	3	3
O=C(NCCO)c1cccc2c1-c1ccccc1C2=O	4.2	3	5	1998	-9	7	16
CC(CC(=O)N1CCCC1)=NNC(=O)c1cc2ccccc2cc1O	5.5	3	·	·	·	-2	12
O=C1C=C(c2ccc3[nH]ccc3c2)CCC1	2.7	8	6	3423	-74	0	-6
COc1ccc(NCc2nnc(SCC(=O)Nc3ccc(OC)cc3OC)o2)cc1	1.7	9	2	3404	-19	4	11
O=C(Nc1ccccc1C(=O)NC(Cc1ccc(O)cc1)C(=O)O)c1ccccc1 (centres undefined)	0.2	-1	1	2092	-19	-6	-11
CCCOc1ccc(N2C(=O)CC(N3CCCC(C(=O)N4CCCC4)C3)C2=O)cc1 (centres undefined)	8.6	·	7	2513	-10	4	·
COc1ccc(Br)cc1C1Nc2ccccc2C(=O)N1NC(=O)c1ccncc1 (centres undefined)	1.9	·	2	2894	-14	-3	·
COc1ccc(-c2nc3ccccc3c(C(=O)Nc3ccc(S(=O)(=O)Nc4cc(C)on4)cc3)c2C)cc1	32	·	2	2187	-22	59	·
CN(c1ccccc1)c1nc(N)c([N+](=O)[O-])c(Nc2ccc(F)cc2)n1	-1.7	2	6	3940	-7	-2	10
Cc1n(-c2ccccc2)c2ccc(Cl)cc2[n+]1CCO	1.7	0	3	4112	-28	3	-1
O=C1CCCc2ccccc2N1Cc1cccc(F)c1	2.2	9	-6	4237	-10	7	9
O=C(Nc1cccc([N+](=O)[O-])c1)NN1CCCCCC1	-0.2	12	·	4003	-28	-6	16
O=[N+]([O-])c1ccc(C=NN2CCCCCC2)cc1	11	15	·	3543	-113	8	6
COC(=O)C1C[C@@]2(O)C(O)C(O)C(O)CC2N1CC(c1ccccc1)c1ccccc1 (some centres undefined)	5.2&9.0	-3&-6	·	·	·	1&3	4&-4

The list continues:
SMILES	RN4220 kill	Mtb hypoxia rep growth	BJeLR lethal	Bead autofluor	PrP 5UTR inh	ugtP null kill	Mtb hypoxia rep
COCCC(=O)Nc1ccc2c(c1)CN(C(=O)CCSC)CC2	4.7	8	-10	2354	-17	-4	9
CCN1CC(CN(C)Cc2cn(-c3cccc(C)c3)nc2-c2cccc(F)c2)CC1=O (centres undefined)	2.3	16	4	4401	-72	0	2
NC(=O)C1CC2(CC(c3cccc(NC(=O)C4CCC(=O)N4)c3)=NO2)CN1C(=O)c1ccc(Cl)cc1 (centres undefined)	4.7	-3	·	·	·	-3	12
CN(CC(=O)Nc1ccc(F)cc1)C(=O)c1ccc(OCc2cn3ccccc3n2)cc1	3.4	9	·	3768	-31	0	12
Cc1ccc(-c2nnn(CC(=O)N3c4ccccc4CCc4ccccc43)n2)cc1	-6.8	4	6	9076	-11	-5	6
O=C(NCC1CC1)C1CC1C(NP(=O)(c1ccccc1)c1ccccc1)c1ccccc1 (centres undefined)	7.1	12	·	·	·	-1	14
CCOC(=O)C1C(=O)C=C(Nc2ccccc2F)CC1c1ccccc1 (centres undefined)	5.6	3	12	2276	-36	-2	5
Cc1ccc(NC(=O)C2CCCN(S(=O)(=O)c3c(C)noc3C)C2)c(Br)c1 (centres undefined)	2.6	-4	-10	4374	-1	-1	-1
CCN(C(=O)COC(=O)CNC(=O)c1ccc(F)cc1)C1CCS(=O)(=O)C1 (centres undefined)	1.4	6	5	4431	-15	3	11
CCC(=C(c1ccc(O)cc1)c1ccc(OCCN(C)C)cc1)c1ccccc1	-4.2	7	·	3740	·	18	0
Cc1cccc(-n2c(C)cc(/C=N/NC(=O)c3ccc(CN4CCOCC4)cc3)c2C)c1	·	·	5	11405	-33	·	·
O=C(NN=Cc1ccccn1)c1ccc(NC(=O)c2ccccc2Cl)cc1	-3.3	-9	·	·	·	0	5
COc1ccc(-c2cc(C(=O)N3CCCCC3)c3ccccc3n2)cc1OC	0.9	-4	12	4720	-15	-5	1
CCCCCCCCOc1ccc(C2CC(=O)NC2=O)cc1 (centres undefined)	-0.7	2	3	4139	-8	93*	-2
Cc1cc(C(=O)OCC(=O)NCc2ccco2)c(C)n1-c1ccc(F)cc1	-11	7	36	3194	-12	-1	3

Single records, from the list above. Order of screens: RN4220 kill, Mtb hypoxia rep growth, BJeLR lethal, Bead autofluor, PrP 5UTR inh, ugtP null kill, Mtb hypoxia rep
Entry for Nc1n[nH]c(N)c1N=Nc1ccccc1 : 3.8, 10, 14, 4455, -15, 11, 7
Entry for NC(=O)C1CC2(CC(c3cccc(NC(=O)C4CCC(=O)N4)c3)=NO2)CN1C(=O)c1ccc(Cl)cc1 (centres undefined) : 4.7, -3, ·, ·, ·, -3, 12

Remaining list, next part.
SMILES	RN4220 kill	Mtb hypoxia rep growth	BJeLR lethal	Bead autofluor	PrP 5UTR inh	ugtP null kill	Mtb hypoxia rep
Cc1nn(Cc2ccccc2)c(C)c1C(=O)OCC(=O)NC1CCS(=O)(=O)C1 (centres undefined)	1.0	10	-2	2582	-74	6	2
COc1ccc(NC(=O)Nc2ccc3c(c2)CCC3)cc1	-0.6	16	3	5021	-67	-7	-6
COc1cc(C2=NOC(C(=O)NC3CCCCC3)C2)cc(OC)c1OC (centres undefined)	4.4	0	-18	11417	-9	0	9
CCCCn1c(N)c(N(CC)C(=O)CSCC(=O)Nc2ccc(OC)cc2)c(=O)[nH]c1=O	·	·	-3	?	-12	·	·
OC1(CN2CCOCC2)C2CC3CC(C2)CC1C3 (centres undefined)	4.6	14	-27	4445	-8	-4	8
Clc1ccc(-c2cn3cc(Br)ccc3n2)cc1Cl	-1.4	3	-11	2078	-34	-19	8
CCCCC(=O)NC(=S)Nc1cccc(Cl)c1N1CCCCC1	-16	3	7	7460	-8	55	-3
CC(OC(=O)c1ccc(-n2cnnn2)cc1)C(=O)NCc1ccccc1 (centres undefined)	5.2	-1	-7	4970	-21	5	9
CN(C)c1nc(OCCNC(=O)COc2ccc(Cl)cc2Cl)nc(N2CCOCC2)n1	4.5	10	0	9060	-32	-8	2
O=C(/C=C/c1ccccc1F)N1CCN(c2ccccn2)CC1	1.4	3	-8	·	-22	8	11
Cc1cccc(NCC(=O)NN=Cc2c[nH]c3ccccc23)c1	3.9	3	·	·	·	-11	11
CC(C)c1c(C(=O)N/N=C/c2ccc(Cl)cc2Cl)nnn1-c1nonc1N	·	·	-6	6273	-8	·	·
Cc1cccc(CCNC(=O)c2nnc(Cc3ccc(Cl)cc3)o2)c1	-0.8	-1	-6	5177	-12	14	1
COc1cccc(CN2CCNC(=O)C2CC(=O)NCCn2ccc3ccccc32)c1OC (centres undefined)	2.1	9	-5	3400	-14	-2	6
O=C(C1CCN(Cc2ccc(Cl)cc2)CC1)N1CCN(C(c2ccccc2)c2ccccc2)CC1	-0.7	4	-5	1998	-2	-6	8

Going on with the list:
SMILES	RN4220 kill	Mtb hypoxia rep growth	BJeLR lethal	Bead autofluor	PrP 5UTR inh	ugtP null kill	Mtb hypoxia rep
CNc1ccccc1-n1ccc(-c2ccccc2)n1	2.8	2	-1	2969	-21	33	3
Cc1cccc(C)c1OCc1nc2ccccc2c(=O)n1/N=C/c1c[nH]c2ccccc12	·	·	-14	2468	0	·	·
c1ccc2c(N3CCCCC3)nc(N3CCCCC3)nc2c1	1.7	13	-2	4894	-14	5	8
Cc1nn(Cc2ccccc2)c(Cl)c1C(=O)OCc1nnc(-c2ccc(Cl)cc2)o1	-0.8	·	-1	2220	-4	-7	·
Nc1nc(SCC(=O)Nc2ccc([N+](=O)[O-])cc2)n[nH]1	5.8	0	-1	3915	-28	1	3
O=C(CSc1nc2c(cnn2-c2ccc(F)cc2)c(=O)[nH]1)N1CCCCCC1	8.7	4	4	5181	-9	-10	3
C/C(=N\NC(=O)c1cc(O)ccc1O)c1cccc(NC(=O)c2cccc(Cl)c2)c1	·	·	-4	5130	-23	·	·
O=C(OC(C(=O)Nc1cc(Cl)cc(Cl)c1)c1ccccc1)C1=COCCO1 (centres undefined)	-1.3	3	18	2599	-4	-40	6
Cc1ccc(C(=O)N/C(=C\Cl)P(=O)(c2ccccc2)c2ccccc2)cc1	·	·	-8	2371	-23	·	·
O=C(O)c1ccc(N/N=C/c2ccncc2)cc1	·	·	15	3998	-32	·	·
CCOC(=O)N1CCN(C(=O)c2cn(CC)c3ccc(S(=O)(=O)N(C)C4CCCCC4)cc3c2=O)CC1	-0.1	-6	-5	4037	-12	0	-10
O=C(NCCN1CCOCC1)c1ccc2c(c1)N(Cc1ccc(F)cc1)C(=O)CS2	6.7	9	-11	6070	-5	-13	-5
COc1cc(Br)cc(/C=N/NC(=O)Cc2ccccc2)c1O	·	·	-2	4264	-6	·	·
Nc1nnc(SCn2nnc3ccccc3c2=O)s1	4.8	9	0	4303	-21	15	19
CC(C)(C)NC(=O)CN(C(=O)c1snc(C(=O)NC2CCCCC2)c1N)c1ccccc1F	-2.0	1	1	4062	-21	3	3

Next part:
SMILES	RN4220 kill	Mtb hypoxia rep growth	BJeLR lethal	Bead autofluor	PrP 5UTR inh	ugtP null kill	Mtb hypoxia rep
Cc1nn(-c2ccccc2)c2c1C1(C(=O)N(C)c3ccccc31)C(C#N)=C(N)O2 (centres undefined)	12	13	-1	9741	-22	-5	12
COc1ccc(CNC(=O)C2CCN(S(=O)(=O)c3ccc4c(c3)N(C(C)=O)CCO4)CC2)cc1	3.5	4	-2	6550	-27	5	2
Cc1ccc(CNS(=O)(=O)c2cn(C)c(=O)n(C)c2=O)cc1	4.5	3	-10	5611	-8	-7	16
Oc1ccccc1C(=S)N1CCCC1	1.8	-2	-3	3148	-22	7	-6
COc1ccc2[nH]c3c(c2c1)CCN1C(=O)C(CC(=O)NCCC2=CCCCC2)C[C@H](C(=O)N2CCCCC2)[C@@]31CCc1ccccc1 (some centres undefined)	3.0	-12	·	3959	-9	-5	-17
CCN(C)Cc1c(C(=O)N2CCc3ccccc3C2)nc2ccc(Cl)cn12	0.3	5	16	2593	-22	0	-2
Cn1cc(Br)c(C(=O)Nc2c(F)c(F)c(F)c(F)c2F)n1	0.8	8	13	2055	-2	0	2
Cc1cc(C)c(OCC(=O)N/N=C/c2ccco2)c(C)c1	·	·	0	2428	-8	·	·
C=C(C)[C@@H]1CC=C(CN2CCN(Cc3ccccc3)CC2)CC1	2.1	23*	-1	3251	-23	15	35*
